ClpP mod – qHTS Assay for Activators of ClpP. ATP-dependent Clp protease proteolytic subunit (Bacillus subtilis (strain 168)), P80244. purified B. subtilis ClpP, FRET peptide cleavage, 20 min. Potency, µM (titrated, usually from 57.5 µM), for inactives: top-dose activity change, negative = active. 340,000 compounds, 1.9% hits. AID 651965, 2013; active = well fitted falling curve with a large enough effect; inconclusive = small, poorly fitted or top-dose-only effect; inactive = no such curve, though single readings can be large or run the other way; also: potency is read from the fitted curve at half-maximal effect; the source files actives as falling curves though it sought activators and does not explain the sign; nearly all actives have a fitted effect of over 65% in size; many hits overshoot -100%
Target sequence (P80244 whole entry, looked up): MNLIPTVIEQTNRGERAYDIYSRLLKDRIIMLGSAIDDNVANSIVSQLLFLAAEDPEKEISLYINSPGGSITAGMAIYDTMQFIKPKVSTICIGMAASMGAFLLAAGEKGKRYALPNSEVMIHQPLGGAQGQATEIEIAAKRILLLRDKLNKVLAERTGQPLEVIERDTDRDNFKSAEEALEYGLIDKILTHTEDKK
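Buffer: 100 mM Tris/HCl pH8, 100 mM KCl, 0.05% low protease BSA, 2.5% glycerol, 0.01% Tween-20. ClpP 10 microg/mL final; 20 min RT; delta FRET normalized to ADEP and DMSO controls.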
TRPV1 potentiator – HTS Assay for Compounds that Act as Potentiators of the Vanilloid Receptor 1 | TRPV1-expressing cells, Fluo-8 calcium influx, capsaicin EC20 potentiation; host cell line not named in the record; control for the full effect not named in the record | potentiation, % at 8.33 µM | AID 540277, 2011 | 320,000 compounds, 0.02% hits; active means potentiation above 80%; inconclusive means 30% to 80%; inactive means below 30%; also: 0% is about no effect
Target sequence (Q8NER1 whole entry, looked up): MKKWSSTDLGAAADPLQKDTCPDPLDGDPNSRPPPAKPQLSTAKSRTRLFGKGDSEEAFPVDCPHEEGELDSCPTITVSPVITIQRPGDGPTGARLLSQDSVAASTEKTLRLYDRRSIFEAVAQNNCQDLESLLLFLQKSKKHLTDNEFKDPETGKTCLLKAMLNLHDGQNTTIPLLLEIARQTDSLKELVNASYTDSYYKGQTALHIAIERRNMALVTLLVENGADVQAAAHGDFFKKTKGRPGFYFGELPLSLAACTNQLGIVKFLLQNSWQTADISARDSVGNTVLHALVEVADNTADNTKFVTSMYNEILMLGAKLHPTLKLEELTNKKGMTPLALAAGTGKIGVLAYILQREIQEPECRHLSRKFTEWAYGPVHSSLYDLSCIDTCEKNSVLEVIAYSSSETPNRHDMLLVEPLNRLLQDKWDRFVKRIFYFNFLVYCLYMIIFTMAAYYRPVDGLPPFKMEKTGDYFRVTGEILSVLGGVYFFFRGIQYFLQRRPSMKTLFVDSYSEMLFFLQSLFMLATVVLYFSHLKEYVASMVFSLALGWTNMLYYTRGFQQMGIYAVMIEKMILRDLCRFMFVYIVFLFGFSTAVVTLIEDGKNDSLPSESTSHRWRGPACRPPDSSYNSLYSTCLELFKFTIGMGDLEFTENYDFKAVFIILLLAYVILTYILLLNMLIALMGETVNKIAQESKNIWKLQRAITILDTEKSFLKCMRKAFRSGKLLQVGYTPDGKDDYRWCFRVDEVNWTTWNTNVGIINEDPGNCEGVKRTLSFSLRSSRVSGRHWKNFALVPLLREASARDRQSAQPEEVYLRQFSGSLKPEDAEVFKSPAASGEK
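Fluo-8 calcium influx in TRPV1-expressing cells, kinetic read (ex 480/em 520 nm). Compound added and read 3 min for agonist activity, followed by capsaicin at EC20 final and 2 min further read for enhancement.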
Sfp PPTase inh – qHTS Assay for Inhibitors of Bacillus subtilis Sfp phosphopantetheinyl transferase (PPTase); Biochemical Sfp PPTase activity, qHTS; 310,000 compounds, 3.5% hits; Potency, µM, without a hit: max response, negative = inhibition, actives largely listed as inhibitors; 4'-phosphopantetheinyl transferase ffp (Bacillus subtilis), Q9F4F7; active = well fitted inhibition curve with a large enough effect; inconclusive = small, poorly fitted or top-dose-only effect, or another doubt; inactive = no such curve, though single readings can be large or run the other way;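 also: the enzyme is Sfp with the accession as filed and its product quenches rhodamine fluorescence; potency is read from the fitted curve at half-maximal effect; 0% = enzyme reaction without inhibitor and -100% = no enzyme wells; top concentration of the series not given in the record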
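Buffer: 50 mM Hepes-Na pH 7.6, 10 mM MgCl2, 0.01% Nonidet P-40, 0.01% BSA. Enzyme 15 nM, pre-exposed to compound 15 min; substrates then added and fluorescence change tracked over 30 min.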
D2 PAM – Beta-Arrestin HTS for Positive Allosteric Modulators of the Human D2 Dopamine Receptor: Potentiators. D(2) dopamine receptor (Homo sapiens), P14416. potentiation, % (no concentration beside the values). 360,000 compounds, 0.23% hits. DiscoveRx D2 beta-arrestin cells, luminescence, 90 min; 100% = 57 uM dopamine signal; active = potentiation of 50% or more; inconclusive = 30% to 50%; inactive = 30% or less;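 also: compound concentration not given in the record; tested on top of an EC20 dose of dopamine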
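PathHunter D2 cells, attached overnight at 37 deg C, received compound in DMSO plus dopamine at EC20 (50 nM final) for 90 min at 37 deg C. Beta-arrestin recruitment was read as luminescence after 1 h with detection reagent at ambient temperature.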
gsp agonist – qHTS for Agonist of gsp, the Etiologic Mutation Responsible for Fibrous Dysplasia/McCune-Albright Syndrome: qHTS; 340,000 compounds, 0.13% hits; gsp mutant cells, cAMP HTRF, 30 min; control for the full effect not named in the record; AID 624287, 2012; Potency, µM (highest dose often 76.9 µM), inactives show at the highest dose activation (cAMP increase), usual class: activators; active = well fitted activation curve with a large enough effect; inconclusive = small, poorly fitted or top-dose-only effect, or another doubt; inactive = no such curve, though single readings can be large or run the other way; cell line not stated here;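 also: phosphodiesterase inhibitor Ro 20-1724 added with compounds to block cAMP breakdown; potency is read from the fitted curve at half-maximal effect; nearly all actives have a fitted effect of over 60% in size; about a fifth of the inactives were tested at one dose only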
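Cells in DMEM/10% FBS with G418 were pretreated with compounds in DMSO plus […] (300 uM stock) for 30 min at 37C. cAMP was measured by HTRF (cAMP-d2 plus anti-cAMP antibody-K) after 30 min at room temperature.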
gsp antagonist – qHTS for Antagonists of gsp, the Etiologic Mutation Responsible for Fibrous Dysplasia/McCune-Albright Syndrome: qHTS. AID 624288, 2012. Potency, µM (doses to about 76.9 µM), inactives show at the top dose activity change, negative = inhibition, actives largely listed as inhibitors. 340,000 compounds, 0.4% hits. gsp-mutant cells, cAMP HTRF, 30 min; control for the full effect not named in the record; active = falling curve of any shape with a large fitted effect; inconclusive = falling curve, mostly with a smaller effect; inactive = flat or rising curve; cell line not stated here;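 also: intracellular cAMP measured with PDE inhibitor Ro 20-1724 present during compound exposure; potency is read from the fitted curve at half-maximal effect; % is scaled to controls: 0 for no effect and ±100 for the full control effect; nearly all actives have a fitted effect of over 65% in size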
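HTRF cAMP measurement after 30 min RT detection following 30 min, 37C compound treatment alongside […] (added as 300 uM solution) in G418-selected cells seeded at 2000/well and grown 16–24 h.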
Menin-MLL FL inh – qHTS Assay for Inhibitors Targeting the Menin-MLL Interaction in MLL Related Leukemias: Competition With Fluorescein Labeled MLL-derived Peptide; Fluorescence polarization, fluorescein-MLL peptide displacement from menin; FP activity change, % at 61.4 µM; 290,000 tested, under 10 active; AID 1766, 2009; inconclusive = falling polarisation curve, or a change in total fluorescence; inactive = total fluorescence flat and polarisation flat or rising; no compound was filed as active; the % refers to the polarisation; negative = inhibition;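 also: % of control where 0% means no effect; inhibitors lower the polarisation; unlabelled MLL peptide was the positive control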
* hit, by the source's call; ? = inconclusive; · = not tested or not shown; & = joins results of further samples; [ ] = remark or other dose.

cpd	canonical_smiles	ClpP mod	TRPV1 potentiator	Sfp PPTase inh	D2 PAM	gsp agonist	gsp antagonist	Menin-MLL FL inh
1	CC1=C(C(=O)Nc2cccc(C(=O)NC(C)c3ccccc3)c2)SCCO1 (stereo not given)	-1.3%	-21	-2%	-1	-2%	-5%	1.2
2	CN(C)c1nc(N)nc(CSc2nc3c(c(=O)n(C)c(=O)n3C)n2Cc2ccccc2F)n1	1.1%	8	6%	-5	-6%[15.4 µM]	16%	0.3
3	COC(=O)C1CCN(C(=O)COC(=O)c2n[nH]c3ccccc23)CC1	32µM*	4	12%	-14	16%	3%	1.4
4	COc1cccc(N2CCN(C(=O)C3CCN(S(=O)(=O)c4cccs4)CC3)CC2)c1	·	6	-13%	4	-15%	-8%	-1.7
5	O=C(Nc1ccccc1-c1ccccc1)c1ccccc1	0.1%	11	-4%	7	-20%	-3%	-0.5
6	CC/C(=N/N=C(\CC)c1ccccc1)c1ccccc1	0.7%	?	3%	-8	-11%	-10%	1.9
7	C=CCN(c1ccc(C(=O)NCCN2CCOCC2)cc1)S(C)(=O)=O	·	6	15%	-1	-51%	6%	5.5
8	CCOCCCNC(=O)C(NC(=O)c1ccc2c(c1)OCO2)c1ccc(Cl)cc1 (stereo not given)	-3.5%	-14	6%	-21	-7%[15.4 µM]	4%	0.3
9	O=C(CN1CCCCC1)NC(=O)Nc1ccccc1F	·	-36	·	-8	-24%[15.4 µM]	11%	·
10	CN(CC(=O)Nc1cccc(F)c1)C(=O)c1cc(S(=O)(=O)N2CCN(c3ccccc3)CC2)ccc1Cl	-3.2%	-4	·	-2	-5%	?	·
11	Cc1ccc(S(=O)(=O)CC(=O)N(CCCN(C)C)c2nc3ccc(C)cc3s2)cc1	1.3%	0	·	-37	15%[15.4 µM]	12%	·
12	Cc1cc(/C=C(\C#N)C(=O)OCC#N)c(C)n1CC(C)C	·	0	-4%	-11	-2%[15.4 µM]	·	3.0
13	COc1ccccc1CNC(=O)CN(c1ccc(C)cc1)S(=O)(=O)c1c(C)noc1C	1.1%&-1.9%	-14	1%	2	-18%	2%	1.2
14	CCN(CC(=O)Nc1c(F)cccc1F)C(=O)C1CCN(S(=O)(=O)c2ccc(C)c(C)c2)CC1	·	1	·	-64	0%[15.4 µM]	-8%	·
15	O=C(c1ccc(F)c(F)c1)N1CCC2(CC1)NCCc1[nH]cnc12	0.1%	4	8%	-7	26%	12%	·
16	CN1C(=O)C(N=Nc2ccc([N+](=O)[O-])cc2)SC1=S (stereo not given)	·	·	·	-9	?	32µM*	·
17	CCN(CC)CCN(Cc1cc2cc(C)ccc2[nH]c1=O)C(=O)Nc1ccccc1OC	-8.9%	88*	-1%	-16	?	3%	0.7
18	FC(F)(F)c1cc(-c2ccccc2)nc(-n2cncn2)n1	-4.9%	19	-5%	0	1%	-10%	-5.2
19	CCOc1ccc(/C=C/[N+](=O)[O-])c2ccccc12	-0.5%	3	8.9µM*	-7	5%	-2%	0.9
20	COCCNCC(=O)Nc1ccc(C)c(S(=O)(=O)N2CCCCC2)c1	·	0	-8%	7	11%[15.4 µM]	·	-0.6
21	Cc1ccccc1N(CC(=O)NCc1ccncc1)S(C)(=O)=O	-2.9%	14	19%	-11	-33%[inhibitor]	1%	-1.2
22	O=C(O)c1cc2ccccc2n1-c1ccccc1	-11%	-2	8%	-3	9%	-16%	5.0
23	COc1ccccc1CCN=C(N)NS(=O)(=O)c1ccc(F)cc1	-0.9%	9	0%	-1	-4%[15.4 µM]	12%	·
24	CC(C)[C@H](NS(=O)(=O)c1ccccc1)C(=O)Nc1ccccc1N1CCOCC1	0.9%	·	·	-12	?	9%	·
25	COc1cc(-n2c(=O)c3ccccc3n(CC(=O)OCc3ccccc3)c2=O)cc(OC)c1OC	·	-26	14%	-1	3%[15.4 µM]	12%	-8.0
26	Cc1ccc2sc(N(CCN(C)C)C(=O)c3ccc4ccccc4c3)nc2c1C	1.4%	7	?	-2	-38%[inhibitor]	2%	·
27	COc1ccc(N(C(=O)c2snc(C(N)=O)c2N)C(C(=O)NC2CCCC2)c2ccco2)c(OC)c1 (stereo not given)	·	-2	14%	-12	19%[15.4 µM]	-5%	5.8
28	O=C(/C(=N/O)n1cncn1)c1ccccc1Cl	-0.7%	-11	28%	-2	8%[15.4 µM]	4%	1.3
29	CCOC(=O)C(=N/O)/C(C)=N/NC(C)=O	·	3	?	-6	1%[15.4 µM]	3%	-3.3
30	COc1ccc(-c2cc(C(=O)Nc3c(F)cc(F)cc3Br)no2)cc1	-3.0%	-6	8%	-14	4%	0%	0.5

Structures shown so far containing a nitro group on carbon, in the order listed:
cpd	canonical_smiles	ClpP mod	TRPV1 potentiator	Sfp PPTase inh	D2 PAM	gsp agonist	gsp antagonist	Menin-MLL FL inh
16	CN1C(=O)C(N=Nc2ccc([N+](=O)[O-])cc2)SC1=S (stereo not given)	·	·	·	-9	?	32µM*	·
19	CCOc1ccc(/C=C/[N+](=O)[O-])c2ccccc12	-0.5%	3	8.9µM*	-7	5%	-2%	0.9

(cont.)
Value order: ClpP mod | TRPV1 potentiator | Sfp PPTase inh | D2 PAM | gsp agonist | gsp antagonist | Menin-MLL FL inh
31	COCC1CCN(Cc2c(C(=O)N3CCc4ccccc4C3)nc3ccc(Cl)cn23)C1 (stereo not given)
 : -11% | -5 | -13% | -15 | ? | -20% | ·
32	C=CCn1c(SCC(=O)NCc2ccco2)nc2ccccc2c1=O
 : · | -15 | 9% | 2 | 0%[15.4 µM] | 1% | -1.7
33	CCN(CC)CCOCCOc1ccccc1F
 : 0.8% | 5 | -11% | -11 | -34% | 5% | -1.8
34	Nc1nnnn1NCc1cccc(OCc2ccccc2)c1
 : -0.9% | 25 | -7% | -7 | -24% | -7% | 1.0
35	COc1cc2c(cc1OC)C(C)N(C(=O)C(NC(=O)c1ccccc1)C(C)C)CC2 (stereo not given)
 : · | 2 | 9% | -1 | -44%[inhibitor] | -7% | 0.7
36	CC(C)(C)c1ccc(NC(=O)CSc2n[nH]c(=O)n2C2CC2)cc1
 : -1.7% | · | · | -9 | -39%[inhibitor] | -9% | ·
37	Cc1cc(NC(=O)CC2CCCC2)ccc1Br
 : · | -9 | -1% | -12 | ? | -3% | -0.3
38	O=C(COC(=O)CCC(=O)c1ccc2c(c1)OCCO2)NCc1ccc2c(c1)OCO2
 : -0.4% | 1 | 11% | -18 | 14% | -4% | 8.1
39	CC1CCCCN1C(=O)C1CCN(S(=O)(=O)c2ccc(-n3cnnn3)cc2)CC1 (stereo not given)
 : · | 0 | 8% | 0 | 3%[15.4 µM] | -2% | 3.5
40	C/C(=N\NC(=O)c1cc(-c2cccnc2)nc2ccccc12)c1ccccc1O
 : -0.4% | 14 | 1% | -25 | 5%[15.4 µM] | -8% | 14
41	COc1ccc(CNCc2ccccc2C(F)(F)F)cc1
 : -2.0% | 23 | -22% | -2 | 5% | 10% | 2.5
42	C#CCOCCOCCOCCNc1nc(N2CCN(C(=O)[C@H](CCC(=O)O)n3cc(C(N)CO)nn3)CC2)nc(N2CCN(C(=O)[C@H](CCC(=O)O)n3cc(C(N)[C@H](C)CC)nn3)CC2)n1 (stereo not given in full)
 : 1.9% | ? | ? | -11 | 8% | 4% | 0.2
43	O=C(CN(C(=O)c1cc2c(s1)CCC2)C1CCCC1)NCc1cccs1
 : 0.6% | -17 | 18% | -30 | -5% | -3% | 4.5
44	CCOCN(C(=O)Cn1c(COC)nc2ccccc21)c1c(C)cccc1CC
 : 0.7%&3.4% | -11 | -3% | -3 | -3% | -14% | 0.8
45	Cc1ccc2c(NC(=O)C3CC3)c(C)ccc2n1
 : · | 1 | 3% | · | · | · | 1.1
46	O=C(NCc1ccco1)c1ccc(N2CCOCC2)c([N+](=O)[O-])c1
 : · | 2 | 13% | -6 | 16%[15.4 µM] | 2% | 0.3
47	COc1ccc2c(c1)[C@H]1[C@H](CO2)[C@H](c2ccccc2)[C@]2(C)C(=O)N(CC3CCCO3)CC(=O)N12 (stereo not given in full)
 : -1.0% | -21 | · | -15 | 2% | -2% | ·
48	CCOC(=O)N1CCC(NC(=O)C2CCCN(S(=O)(=O)c3ccc4c(c3)oc(=O)n4C)C2)CC1 (stereo not given)
 : 1.3% | 6 | 7% | 18 | ? | 7% | -0.4
49	COc1ccc(C2c3c4c(n(C)c3CCN2C)CCN(C)C4c2ccc(OC)cc2)cc1 (stereo not given)
 : -4.4% | 3 | 0% | 4 | 1% | 10% | 0.7
50	CC(C)Oc1ccc(S(=O)(=O)N2CCOCC2)cc1NC(=O)CCCSc1ccccc1
 : 1.9% | 0 | · | -18 | -22% | -7% | ·

Some of the entries so far, with one line to a screen:
26: Cc1ccc2sc(N(CCN(C)C)C(=O)c3ccc4ccccc4c3)nc2c1C
27: COc1ccc(N(C(=O)c2snc(C(N)=O)c2N)C(C(=O)NC2CCCC2)c2ccco2)c(OC)c1 (stereo not given)
assay / compound	26	27
ClpP mod	1.4%	·
TRPV1 potentiator	7	-2
Sfp PPTase inh	?	14%
D2 PAM	-2	-12
gsp agonist	-38%[inhibitor]	19%[15.4 µM]
gsp antagonist	2%	-5%
Menin-MLL FL inh	·	5.8

Screening results (PubChem)
